BJeLR lethal – kills HRASV12-expressing BJeLR cells | BJeLR (HRASV12) viability, CellTiter-Glo ATP luminescence, 48 h; reference of the scale not given here | inhibition, % (concentration not given with the values) | 0.17% of 300,000 active | AID 1554;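 active means replicate mean above 50%; inconclusive means above 50% but judged a plate artefact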;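 further: 50 nL library stock added to about 25 µL; numbers are from one replicate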
RN4220 kill – kills Staphylococcus aureus RN4220 | AID 1259311 | inhibition, % (test concentration not listed) | 0.33% of 330,000 active | S. aureus RN4220 growth, OD600, 16 h;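 active means z-score of -3 or lower and OD600 up to 0.18 on both plates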;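 further: plate controls were untreated cells for no effect and reference antibiotic for full effect; stock transfer was 100 nL into about 80 µL; one replicate is shown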
Mtb hypoxia inh – Mtb hypoxia fluorescent reporter inhibition; 0.1% of 300,000 active; M. tuberculosis hypoxia-regulated fluorescent reporter, fluorescence; AID 1159583; fluorescence inhibition, % (test concentration not listed);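 active means 35 to 45% if threefold the growth effect, above 45% if 1.5-fold the growth effect; inactive means the rest, general growth blockers included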;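 further: wells of about 50 µL received 100 nL stock; 0% = vehicle wells and 100% = reference inhibitor wells; whole bacteria with a GFP reporter of the hypoxia response; strong numbers were not always called active; many hits fall short of the cut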
Sa ugtP lethal – compounds lethal to S. aureus RN4220 ugtP deletion mutant | AID 1259309 | OD600 growth, 16 h; some inactives read as strong as hits | growth inhibition, % (test concentration not listed) | 0.54% of 330,000 active;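 active means z-score under -3 and OD600 up to 0.15 on both plates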;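 further: plate controls were untreated wells for no effect and antibiotic for full effect; wells of about 80 µL received 100 nL stock; the first replicate is given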
Autofluor counter – compound fluorescence in toxin protease inhibitor counterscreen; compound autofluorescence counterscreen, microsphere flow cytometry; stronger effect = higher value; fluorescence intensity (no concentration beside the values); 3.1% of 360,000 active;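 active means at least 3 SD above the mean of all compounds, about 16000 in these data; inconclusive means too few beads counted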;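 further: 100 nL of 1 mM stock went into each well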
PrP 5UTR inh – inhibition of PrP 5' UTR reporter expression; cell-based PrP 5' UTR mRNA reporter, plate reader; inhibition, % (test concentration not listed); 0.35% of 340,000 active; AID 488862;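 active means every replicate at 50% or more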;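 further: 0 = median of the neutral control wells; tested in H4 reporter cells; numbers are from one replicate; inactives centre near -14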
Mtb hypoxia inh growth – recorded beside Mtb hypoxia inh, whose call it bears; growth inhibition, %; measured here: M. tuberculosis growth (absorbance);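 0% = vehicle and 100% = reference antibiotic; read after six days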
An asterisk follows results filed as active; ? = inconclusive; . = no result given. Outcome played no part in choosing rows; any-hit rate near 4%.

Labels used below – A = BJeLR lethal; B = RN4220 kill; C = Mtb hypoxia inh; D = Mtb hypoxia inh growth; E = Sa ugtP lethal; F = Autofluor counter; G = PrP 5UTR inh
molecule: CN1C(=c2sc(=C3C(=O)N(c4ccccc4)NC3=Nc3ccccc3)n(C)c2=O)C(C)(C)c2ccccc21
  A: . | B: -12 | C: 25 | D: 21 | E: -7 | F: . | G: .
molecule: Cc1ccc(S(=O)(=O)N=C(c2ccccc2)N(C)S(=O)(=O)c2ccccc2)cc1
  A: . | B: 7.7 | C: 2 | D: 3 | E: 3 | F: . | G: .
molecule: CC(NC(=O)CN1CCN(c2ccc(Cl)cc2)CC1)c1ccccc1 (stereo not given)
  A: 5 | B: 5.4 | C: -7 | D: 1 | E: 12 | F: 4364 | G: -37
molecule: CC(Sc1c[nH]c2ccccc12)C(=O)O (stereo not given)
  A: 1 | B: 3.9 | C: -1 | D: -2 | E: -1 | F: 10074 | G: -27
molecule: O=C1C2ON(c3ccccc3)C(c3cccnc3)C2C(=O)N1c1ccc(Cl)c(Cl)c1 (stereo not given)
  A: 0 | B: 3.6 | C: 4 | D: 11 | E: 5 | F: 5622 | G: -6
molecule: Cc1cccc(NC(NC(=O)c2cccnc2)C(Cl)(Cl)Cl)c1 (stereo not given)
  A: -13 | B: -2.3 | C: 8 | D: 6 | E: 0 | F: 9628 | G: -37
molecule: Cc1ccc(-c2nnn(CC(=O)N(CCN3CCOCC3)C(C(=O)NC3CCCC3)c3ccncc3)n2)o1 (stereo not given)
  A: -6 | B: 17 | C: 2 | D: 8 | E: -56 | F: 4079 | G: -29
molecule: CCc1ccc2nc3sc(C(=O)O)cc3cc2c1
  A: 6 | B: 5.2 | C: 18 | D: 3 | E: -8 | F: 3375 | G: -47
molecule: Cc1cc(C)nc(-n2nc(C)c3c(C(=O)O)cc(-c4cccc(Br)c4)nc32)n1
  A: -4 | B: 3.3 | C: 2 | D: 16 | E: -3 | F: 3367 | G: -29
molecule: Cc1c(C)[n+](=O)c(-c2ccc(F)cc2)c(C)n1[O-]
  A: 2 | B: -3.1 | C: 2 | D: -6 | E: 0 | F: 7132 | G: -5
molecule: COc1ccc(Br)cc1CN(C)C(=O)Cc1ccc(S(=O)(=O)N2CCOCC2)s1
  A: -1 | B: 2.9 | C: 1 | D: 3 | E: 4 | F: ? | G: -24
molecule: COc1ccc(CN(C(=O)CN2C(=O)COc3ccccc32)C2CCCC2)c(OC)c1
  A: -1 | B: -0.3 | C: -2 | D: 13 | E: -9 | F: 21877* | G: 5
molecule: CSCCC1NC2(C(=O)Nc3c2ccc(Cl)c3C)[C@@H]2C(=O)N(C3CCCC3)C(=O)[C@H]12 (stereo not given in full)
  A: . | B: 1.7 | C: 1 | D: 0 | E: 2 | F: 10401 | G: -28
molecule: COc1cc(C(=S)N2CCOCC2)cc(OC)c1OC(=O)c1ccc(C)cc1
  A: 5 | B: 1.3 | C: 12 | D: 1 | E: -1 | F: 3086 | G: -1
molecule: Cc1cccc(NC(=O)c2cc3c(s2)-c2c(C)cccc2OC3)n1
  A: 19 | B: 8.6 | C: 14 | D: 3 | E: 2 | F: 4566 | G: .
molecule: Cc1c(O)ccc(C(=O)COc2ccccc2F)c1O
  A: 0 | B: -0.2 | C: 5 | D: -6 | E: -5 | F: ? | G: -23
molecule: COc1ccc(CCNC(=O)c2ccc(N(C)S(=O)(=O)c3ccc(C)cc3)cc2)cc1
  A: . | B: -9.6 | C: 9 | D: 9 | E: 5 | F: 4298 | G: -16
molecule: CN(C)S(=O)(=O)c1cccc(C(=O)OCC(=O)NC2CCCc3ccccc32)c1 (stereo not given)
  A: 3 | B: -3.0 | C: 8 | D: 4 | E: 5 | F: 9534 | G: -13
molecule: O=C(C[C@H]1C/C=C\CC[C@H](Cc2ccc(F)cc2)C(=O)OC[C@H]2CCCN2C1=O)N[C@H](CO)Cc1ccccc1
  A: . | B: 1.2 | C: -2 | D: 1 | E: -3 | F: 3362 | G: -13
molecule: CCC1CCC/C1=N\NC(=O)c1ccccc1C (stereo not given)
  A: -5 | B: . | C: . | D: . | E: . | F: 2846 | G: -12

Arranged by molecular weight (ascending): part of the list above.
Labels used below – A = BJeLR lethal; B = RN4220 kill; C = Mtb hypoxia inh; D = Mtb hypoxia inh growth; E = Sa ugtP lethal; F = Autofluor counter; G = PrP 5UTR inh
molecule: CCC1CCC/C1=N\NC(=O)c1ccccc1C (stereo not given)
  A: -5 | B: . | C: . | D: . | E: . | F: 2846 | G: -12
molecule: Cc1c(O)ccc(C(=O)COc2ccccc2F)c1O
  A: 0 | B: -0.2 | C: 5 | D: -6 | E: -5 | F: ? | G: -23
molecule: Cc1cccc(NC(=O)c2cc3c(s2)-c2c(C)cccc2OC3)n1
  A: 19 | B: 8.6 | C: 14 | D: 3 | E: 2 | F: 4566 | G: .
molecule: COc1cc(C(=S)N2CCOCC2)cc(OC)c1OC(=O)c1ccc(C)cc1
  A: 5 | B: 1.3 | C: 12 | D: 1 | E: -1 | F: 3086 | G: -1
molecule: CN(C)S(=O)(=O)c1cccc(C(=O)OCC(=O)NC2CCCc3ccccc32)c1 (stereo not given)
  A: 3 | B: -3.0 | C: 8 | D: 4 | E: 5 | F: 9534 | G: -13
molecule: COc1ccc(CN(C(=O)CN2C(=O)COc3ccccc32)C2CCCC2)c(OC)c1
  A: -1 | B: -0.3 | C: -2 | D: 13 | E: -9 | F: 21877* | G: 5
molecule: Cc1cc(C)nc(-n2nc(C)c3c(C(=O)O)cc(-c4cccc(Br)c4)nc32)n1
  A: -4 | B: 3.3 | C: 2 | D: 16 | E: -3 | F: 3367 | G: -29
molecule: COc1ccc(CCNC(=O)c2ccc(N(C)S(=O)(=O)c3ccc(C)cc3)cc2)cc1
  A: . | B: -9.6 | C: 9 | D: 9 | E: 5 | F: 4298 | G: -16
molecule: COc1ccc(Br)cc1CN(C)C(=O)Cc1ccc(S(=O)(=O)N2CCOCC2)s1
  A: -1 | B: 2.9 | C: 1 | D: 3 | E: 4 | F: ? | G: -24
molecule: Cc1ccc(-c2nnn(CC(=O)N(CCN3CCOCC3)C(C(=O)NC3CCCC3)c3ccncc3)n2)o1 (stereo not given)
  A: -6 | B: 17 | C: 2 | D: 8 | E: -56 | F: 4079 | G: -29
molecule: O=C(C[C@H]1C/C=C\CC[C@H](Cc2ccc(F)cc2)C(=O)OC[C@H]2CCCN2C1=O)N[C@H](CO)Cc1ccccc1
  A: . | B: 1.2 | C: -2 | D: 1 | E: -3 | F: 3362 | G: -13

(continued)
Labels used below – A = BJeLR lethal; B = RN4220 kill; C = Mtb hypoxia inh; D = Mtb hypoxia inh growth; E = Sa ugtP lethal; F = Autofluor counter; G = PrP 5UTR inh
molecule: O=c1cnnc(NN=CC2CC=CCC2)[nH]1 (stereo not given)
  A: . | B: 3.2 | C: 6 | D: 4 | E: 6 | F: . | G: .
molecule: COc1cc(OC)c(C2=NOC(C(=O)NCc3cccs3)C2)cc1Cl (stereo not given)
  A: 63* | B: 3.2 | C: 6 | D: 16 | E: 16 | F: 4333 | G: -25
molecule: CCOc1ccc(C(=O)N(Cc2ccccc2)c2cccc(C)c2)cc1OC
  A: -6 | B: 1.6 | C: 9 | D: 8 | E: 9 | F: 5588 | G: -4
molecule: CCOC(=O)c1ccc(S(=O)(=O)N2CCN(CCc3ccncc3)CC2)cc1
  A: . | B: -1.3 | C: 1 | D: 1 | E: 0 | F: 2963 | G: -5
molecule: CCCCCOC(=O)Nc1ccc(S(=O)(=O)Nn2cnnc2)cc1
  A: 2 | B: -0.4 | C: 3 | D: 15 | E: -3 | F: 8229 | G: -10
molecule: CC(=O)C1=C(O)C(=O)N(Cc2ccccc2)C1c1ccc(Cl)cc1 (stereo not given)
  A: -5 | B: 11 | C: -1 | D: -11 | E: 0 | F: 3208 | G: -24
molecule: CCOC(=O)c1nc(N/N=C/c2ccccc2)sc1Br
  A: -7 | B: . | C: . | D: . | E: . | F: 4422 | G: -26
molecule: C/C(C=NNc1nnc2c(n1)[nH]c1ccccc12)=C\c1ccco1
  A: . | B: 1.3 | C: 8 | D: 2 | E: -6 | F: . | G: .
molecule: CCOC(=O)C1=C(c2ccccc2)NC(=O)NC1c1cc(OC)c(O)c([N+](=O)[O-])c1 (stereo not given)
  A: -9 | B: 4.7 | C: 8 | D: -2 | E: 4 | F: 3521 | G: -9
molecule: O=c1oc2ccccc2n1CSc1nc2ccccc2s1
  A: -18 | B: 20 | C: . | D: . | E: 3 | F: 4641 | G: -67
molecule: COC(=O)Cc1c(C)nc2nc(-c3ccc(C)cc3)[nH]n2c1=O
  A: 1 | B: 1.4 | C: -1 | D: 3 | E: 3 | F: 2917 | G: -22
molecule: CCCCOc1ccc(C(=O)OC(C)CN(C)C)cc1 (stereo not given)
  A: -2 | B: 5.8 | C: 5 | D: -2 | E: 9 | F: 4479 | G: -10
molecule: CCN(CC)CCCN1C(=O)C(O)=C(C(=O)c2cc3cccc(OC)c3o2)C1c1ccncc1 (stereo not given)
  A: 3 | B: 3.7 | C: 9 | D: 1 | E: 5 | F: 21784* | G: -12
molecule: O=C(Nc1ccncc1)c1cccc(S(=O)(=O)N2CCOCC2)c1
  A: 5 | B: 4.5 | C: -10 | D: 5 | E: -9 | F: 6136 | G: -10
molecule: N#C/C(=C\c1ccccc1)C(=O)NC(=O)Oc1ccccc1
  A: 2 | B: 5.2 | C: 2 | D: -1 | E: 2 | F: 10246 | G: -18
molecule: Cc1n[nH]c(=O)c2c(NC(=O)CSc3nnnn3-c3ccccc3)oc(C)c12
  A: 4 | B: 4.8 | C: 4 | D: 1 | E: 10 | F: ? | G: -19

Compound activity deposited in PubChem by several laboratories.
